Assay outcomes deposited in PubChem by National Center for Advancing Translational Sciences (NCATS).
2A StopGo = FMDV 2A StopGo reporter, luciferase signal; Potency, µM (doses to about 57.9 µM), for the others: at the top dose signal change, negative = less light; 410,000 tested, 1.2% active; AID 1159524; human cells with a luciferase reporter of 2A StopGo recoding; control for the full effect not named in the record; active = well fitted falling curve with a large enough effect; inconclusive = small, poorly fitted or top-dose-only effect; inactive = no such curve, though single readings can be large or run the other way; tested in HEK293T cells; further: on the % scale 0 is the no-effect control and ±100 the full control effect; nearly all actives have a fitted effect of over 45% in size; luciferase light after 4 h
Cruzain Triton = blocks cruzain activity in presence of Triton detergent. P25779. purified cruzain, Z-FR-AMC fluorescence, 0.01% Triton. Potency, µM, for inactives: max response, negative = inhibition, most hits filed as inhibitors. 200,000 tested, 0.43% active; active means well fitted curve in the direction sought with a large enough effect; inconclusive means small, poorly fitted or top-dose-only effect, or another doubt; inactive means no such curve, though single readings can be large; an effect the other way counts as inactive or inconclusive;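 further: plate controls were neutral wells for no effect and buffer without enzyme for full effect; nearly all actives have a fitted effect of over 40% in size; top concentration of the series not given in the record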
Target sequence (P25779 123-467 limits assumed): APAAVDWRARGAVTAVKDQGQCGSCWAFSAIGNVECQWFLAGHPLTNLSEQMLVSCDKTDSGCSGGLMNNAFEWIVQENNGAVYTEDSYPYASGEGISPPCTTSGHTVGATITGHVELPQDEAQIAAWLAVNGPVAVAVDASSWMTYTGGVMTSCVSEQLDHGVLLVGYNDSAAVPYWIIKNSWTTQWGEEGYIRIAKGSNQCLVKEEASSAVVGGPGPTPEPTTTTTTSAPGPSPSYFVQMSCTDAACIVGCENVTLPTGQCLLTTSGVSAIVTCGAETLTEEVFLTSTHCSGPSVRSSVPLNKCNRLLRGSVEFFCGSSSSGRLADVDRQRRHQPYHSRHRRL
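Cysteine protease activity tested under reducing, mildly acidic conditions (100 mM sodium acetate pH 5.5, 5 mM DTT) plus 0.01% Triton X-100. Cruzain 1.5 nM; substrate Z-FR-AMC 2 uM; 15 min compound preincubation at room temperature.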
RE007 growth inh = less growth of the S. pombe RE007 Vpr strain; Potency, µM (doses to about 92.2 µM), inactives show top-dose activity change, negative = less growth; S. pombe RE007 Vpr strain, BacTiter-Glo ATP luminescence, 24 h; control for the full effect not named in the record; 360,000 tested, 0.21% active; active = well fitted falling curve with a large enough effect; inconclusive = small, poorly fitted or top-dose-only effect; inactive = no such curve, though single readings can be large or run the other way;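 further: on the % scale 0 is the no-effect control and ±100 the full control effect; nearly all actives have a fitted effect of over 50% in size; the assay follows cell death caused by Vpr and the record does not say whether a fall means rescue or toxicity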
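Fission yeast RE007 carrying one integrated HIV-1 vpr copy, seeded at OD 0.01 in PMG+AL medium with 23 nL pinned compound. Grown 24 h at 30 degrees; viability read by BacTiter-Glo luminescence after 5 min.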
Marburg entry inh = Marburg virus entry inhibition | Marburg virus pseudotyped entry inhibition, cell reporter; control for the full effect not named in the record; about a third of the inactives were read at about 46 µM | Potency, µM (series often up to 37.8 µM), for the others: top-dose activity change, negative = inhibition, actives largely listed as inhibitors | 300,000 tested, 1.8% active; active = well fitted inhibition curve with a large enough effect; inconclusive = small, poorly fitted or top-dose-only effect, or effect the other way; inactive = flat fitted curve, though single readings scatter; tested in HEK293 cells; about a fifth of its hits are not listed in these tables; further: on the % scale 0 is the no-effect control and ±100 the full control effect; luciferase read-out
Cruzain noTriton = blocks cruzain activity in detergent-free assay; P25779; purified cruzain, Z-FR-AMC fluorescence, no detergent; Potency, µM, for inactives: max response, negative = inhibition, hits mostly inhibitors; 200,000 tested, 2.3% active; active means well fitted curve in the direction sought with a large enough effect; inconclusive means small, poorly fitted or top-dose-only effect, or another doubt; inactive means no such curve, though single readings can be large; an effect the other way counts as inactive or inconclusive;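 further: plate controls were enzyme without inhibitor for no effect and buffer without enzyme for full effect; nearly all actives have a fitted effect of over 40% in size; top concentration of the series not given in the record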
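Detergent-free condition (0.00005% Triton X-100) in acetate buffer pH 5.5 with DTT. 1.5 nM enzyme and compound were pre-mixed 15 min, then 2 uM Z-FR-AMC substrate added; reaction progress from fluorescence change between first and third reads (60 s).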
SARS PLP yeast = SARS-CoV PLP inhibition in yeast; S. cerevisiae expressing SARS-CoV PLpro, growth rescue; control for the full effect not named in the record; Potency, µM (series often up to 32.9 µM), inactives show at the highest dose activity, positive = growth rescue; 330,000 tested, 0.19% active; further: 0% is about no effect; nearly all actives have a fitted effect of over 55% in size; growth read by luminescence after 48 h
Lassa entry inh = blocks Lassa virus binding to or entry into cells. Lassa virus pseudotype entry inhibition, cell reporter; control for the full effect not named in the record. Potency, µM (series often up to 37.9 µM), without a hit: top-dose activity change, negative = inhibition, most hits filed as inhibitors. 300,000 tested, 1.2% active. AID 540256; active means well fitted inhibition curve with a large enough effect; inconclusive means small, poorly fitted or top-dose-only effect, or effect the other way; inactive means flat fitted curve, though single readings scatter; tested in HEK293 cells; further: on the % scale 0 is the no-effect control and ±100 the full control effect; nearly all actives have a fitted effect of over 50% in size; luciferase read-out
NS1 function inh = influenza NS1 inhibition; S. cerevisiae slowed by influenza A NS1, growth recovery by OD600; Potency, µM (titrated, usually from 46.1 µM), for inactives: at the highest dose activity, positive = more growth; 270,000 tested, 0.4% active; further: actives are rising curves; nearly all actives have a fitted effect of over 50% in size
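A cell-based growth assay was used: compounds that relieve NS1-induced slow growth of budding yeast raise OD600. Assay medium was yeast nitrogen base with ammonium sulphate and -URA supplement, pH 6.0, with 2% galactose.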
Starred values were filed as active, the others as inactive; u = inconclusive; x = no result given; & = joins results of further samples; [ ] = another dose, or the depositor's remark. Unless noted, the call rests on the fitted dose curve; in most records, active means well fitted rising curve with a large enough effect; inconclusive means small, poorly fitted or top-dose-only effect; inactive means no such curve, though single readings can be large or run the other way. Potency means the concentration at half of the fitted maximal effect.

SMILES | 2A StopGo | Cruzain Triton | RE007 growth inh | Marburg entry inh | Cruzain noTriton | SARS PLP yeast | Lassa entry inh | NS1 function inh
O=C(COC(=O)/C=C/c1cccc(Cl)c1)Nc1ccc(N2CCOCC2)cc1 | 9% | x | -4% | -1%[46.1 µM] | x | 6% | -2%[46.1 µM] | x
O=C1CCC(=O)N1CN(C(=O)c1ccco1)c1ccc(Cl)c(Cl)c1 | 8% | -1.9% | -5% | 16%&16% | -4% | 3% | 27% | -20%
Cc1ccc(C(=O)Nc2sc(C(=O)N(C)C)c(C)c2C#N)cc1 | 46%[activator] | -2.3% | -13% | -1% | -9% | 8% | 6% | -9%
COc1ccc(NC(=O)CSc2nnc(-c3cccs3)n2N)c(OC)c1 | 30% | x | 11% | -8% | x | 1% | 0% | x
Cc1cc(C)nc(SCC(=O)Nc2ncc(Cc3cccc(Cl)c3Cl)s2)n1 | u | 9.6% | 1% | -23% | -11% | 26% | 9% | 1%
Cc1cc(C)c(C)c(S(=O)(=O)NCCN2CCOCC2)c1C | 68%[activator] | x | 11% | -3%[46.1 µM] | x | -4% | 14%[46.1 µM] | -8%
CCCCn1c(N)c(N(CC)C(=O)c2cccc(S(=O)(=O)N3CCN(C)CC3)c2)c(=O)[nH]c1=O | -7% | x | -20% | 9% | x | -5% | 8% | x
CCCOc1ccc(Nc2cc(C)nc(C)n2)cc1 | 24% | -3.5% | x | 22%[46.1 µM] | 9% | x | 9%[46.1 µM] | x
Cn1ccc(C(=O)OCC(=O)Nc2cccc3ccccc23)n1 | -11% | x | -17% | -13%[46.1 µM] | x | -4% | 17% | x
Oc1ccc(-c2c(C3=CCCCC3)sc3ccccc23)cc1 | -16% | x | -20% | x | x | -29% | x | -25%
Cn1cc(/C=N/NC(=O)c2cccc([N+](=O)[O-])c2)c2ccccc21 | 1% | -3.0% | -16% | 31% | u | -1% | 5% | 8%
O=C(c1c(F)cccc1F)N1CCCC(c2nc(-c3ccc(F)cc3)no2)C1 (centres undefined) | -18% | x | 1% | x | x | 3% | x | -20%
O=C(NNC(=O)C1CC1c1ccccc1)c1cccc([N+](=O)[O-])c1 (centres undefined) | 9% | 1.2% | 5% | u | -5% | 0% | 5% | -7%
O=C(CSc1ccsc1[N+](=O)[O-])N1CCN(c2ccc(Cl)cc2)CC1 | -17% | -11% | -8% | 1% | 4% | -30% | 4% | 10%
Cc1ccc(Nc2nnc(SC(C)C(=O)NCC3CCCO3)s2)cc1C (centres undefined) | u | x | 1% | 3% | x | -3% | -1% | x
COc1ccccc1OCC(O)Cn1nc(C)cc1C (centres undefined) | 10% | 4.4% | 2% | 28% | -3% | 14% | 23% | -5%
COc1ccc(CCn2c(C3CCCCC3)nc3c(c(=O)c4ccccc4n3C)c2=O)cc1OC | -18% | x | 1% | u | x | 6% | -26%[46.1 µM] | -2%
Cc1cc(C)cc(N(CCC#N)C(=O)COC(=O)C2CCN(S(=O)(=O)c3ccc(C)c(C)c3)CC2)c1 | -11% | x | -15% | 0% | x | 0% | -19% | x
Nc1cccc(Oc2ccc3c(c2)C(=O)N(CCO)C3=O)c1 | 13% | x | 4% | 6%[46.1 µM] | x | x | 1%[46.1 µM] | x
Cc1cccc(OCc2nnc(SCC(=O)Nc3cccc(C(=O)N4CCOCC4)c3)o2)c1C | -14% | -1.6% | -14% | -3%&-3% | u | -2% | -1% | -14%
O=C1NC2C(=CC(O)C(O)C2O)c2cc3c(cc21)OCO3 (centres undefined) | u | x | -4% | u | x | x | 1µM* | x
C=CCOc1ccc(/C=C2/C(=O)ON=C2C)cc1OC | u | x | 5% | -1%[46.1 µM] | x | -2% | 0%[46.1 µM] | 9%
CN(c1ccccc1)S(=O)(=O)c1ccc2c(c1)oc(=O)n2C | 15% | x | -3% | -10%[46.1 µM] | x | 4% | 0%[46.1 µM] | 6%
COc1ccc(C2NC(=O)c3ccccc3O2)cc1OC (centres undefined) | x | -3.0% | -15% | 0% | -4% | 1% | 0% | 4%
CCCCC(=O)Nc1cc(N(C)C)nc2ccccc12 | -4% | -0.4% | 0% | 2% | 4% | 11% | 12% | -11%
COc1cc(/C=C(/C#N)C(=O)NCCc2c[nH]c3ccccc23)ccc1OCc1ccccc1F | 19% | 5.1% | -10% | u | 7.9µM* | 2% | -21% | 17%
CCOC(=O)CN1CC23C=CC(O2)C(C(=O)NCc2ccc(F)cc2)C3C1=O (centres undefined) | -22% | -6.7% | 11% | x | 1% | -4% | x | u
O=C(CSc1ccc(-c2ccccn2)nn1)c1ccc(F)cc1 | 8% | x | -3% | 5%[46.1 µM] | x | -17% | 13% | x
CCOc1cc2[nH]c(=O)n(CCCCC(=O)N3CCCCCC3)c(=O)c2cc1OCC | -20% | -2.7% | 3% | 8% | u | 19% | u | -1%
O=C(CNC1=NCCC1)c1ccc(Cl)cc1 | -14% | 4.6% | -11% | -1% | -4% | 9% | -8% | -1%
CCc1noc(C)c1C(=O)Nc1cccc(S(=O)(=O)N(C)c2ccccc2)c1 | -28% | x | -5% | u | x | 0% | 10% | x
Cc1cccc(N2CCN(C(c3ccc(F)cc3)c3nnc(-c4ccccc4)o3)CC2)c1C (centres undefined) | -27% | -2.5% | x | u | u | x | u | x
CC(c1ccccc1)N1C(=O)c2cccnc2C1=O (centres undefined) | 3% | x | 4% | 5% | x | -9% | -3% | -13%
CC(C)Oc1ccc(Cn2c(=O)sc3ccccc32)cc1 | -9% | -8.3% | -26% | -15% | -12% | -37% | 9% | -13%
CC(Sc1nc(-c2ccccc2)cs1)C(=O)Nc1ccc(Cl)cn1 (centres undefined) | -21% | -1.9% | 14% | u | -1% | -39% | 3% | -14%
CCN(C(=O)C12CC3CC(CC(C3)C1)C2)C1CCS(=O)(=O)C1 (centres undefined) | -11% | x | 27% | 1% | x | -4% | 19% | x
COc1ccc(OC)c(CCNC(=O)CCn2c(=O)c3cccn3c3cccnc32)c1 | -7% | -1.0% | x | x | 16% | x | 4%[46.1 µM] | x
O=C1CCC2CCCCC2(O)O1 (centres undefined) | -20% | 3.5% | 3% | 6% | 11% | 5% | 5% | 8%
Clc1ccc(-n2nnc(-c3cccnc3Cl)n2)cn1 | 32%[activator] | x | -4% | x | x | -2% | x | -5%
COc1ccccc1NS(=O)(=O)c1cc(NC(=O)C2CCC2)ccc1N1CCCCC1 | 44%[activator] | x | -3% | x | x | -1% | x | u
S=C(Nc1ccc(-c2nc3ccccc3[nH]2)cc1)Nc1cccnc1 | -11% | x | -28% | u | x | -8% | x | 11%
O=S(=O)(c1ccc(Cl)cc1)c1cc(O)ccc1O | 41%[activator] | x | -1% | x | x | -2% | x | -8%
CCOC(=O)CC(=O)CSc1nc2ccc(C)cc2cc1C#N | x | -13% | -11% | 28% | -7% | 2% | 0% | -5%
Cc1ccc(C)c(N2CCN(c3nc4ccc(Cl)cc4n4cnnc34)CC2)c1 | -24% | -2.7% | x | 27%[46.1 µM] | 0% | x | u | x
C=CCN(CC=C)S(=O)(=O)c1ccc2nc(NC(=O)C3CCCO3)sc2c1 (centres undefined) | -13% | -3.5% | -13% | u | -8% | 13% | u | -1%
O=C1c2ccccc2S(=O)(=O)c2cc(C(=O)N(c3ccccn3)c3ccccn3)ccc21 | 7% | -3.3% | -12% | 13% | 3% | 4% | u | -2%
C=CCn1c(O)c(C(C)=Nc2ccc(C(=O)O)cc2)c(=O)[nH]c1=O | -11% | x | 18% | 5% | x | 0% | 6% | 6%
Cc1cccc(NC(=O)CNC(=O)c2cc(C3CC3)nn2-c2ccccc2)c1C | -25% | x | 4% | -3% | x | -2% | -5% | x
O=C(Nc1ccc(OCc2cc(=O)n3c4c(sc3n2)CCCC4)cc1)c1ccc(F)cc1 | -3% | 0.7% | x | 1%[46.1 µM] | 17% | x | 17%[46.1 µM] | x
CS(=O)(=O)c1nc(S(=O)(=O)c2ccc(Cl)cc2)c(N2CCN(CCO)CC2)s1 | -9% | x | -8% | x | x | u | x | 1%
COc1ccc(-c2nc(C#N)c(NCc3ccco3)o2)cc1 | 43%[activator] | x | -13% | x | x | -1% | x | -3%
Cc1ccc(OCc2nc(C#N)c(N3CCCCC3)o2)cc1 | 10% | x | -7% | 3%[46.1 µM] | x | -2% | -10% | -33%
CCCCOC(=O)CSc1nnc(-c2ccc(Cl)cc2Cl)o1 | -7% | -5.5% | -17% | -15% | -4% | -2% | -9% | -42%
COc1ccc(-c2csc(NC(=O)Cc3cc(OC)c(OC)c(OC)c3)n2)cc1OC | 14µM* | x | 1% | u | x | -3% | x | -18%
CCOC(=O)Cn1c(=O)cc(C)c2ccccc21 | 21% | x | -2% | 5% | x | 2% | -1% | 5%
Cc1nc2c(c(C)nn2C(C)(C)C)c(C)c1CCC(=O)Nc1ccc(Br)cc1Br | 0% | -1.6% | x | -2%[46.1 µM] | 14% | x | u | x
O=C(NCc1ccc(F)cc1)C1CC(=O)N(CCc2ccccc2)C1 (centres undefined) | 11% | 7.8% | 15% | 23% | 0% | 2% | 18% | u
CCOC(=O)NC(Nc1sc2c(c1C(N)=O)CCCC2)(C(=O)OCC)C(F)(F)F (centres undefined) | 9% | -1.3% | -5% | -5% | 4% | 8% | -8%[14.3 µM] | 21%
O=C(/C=C\c1ccc2c(c1)OCO2)CC1(O)C(=O)Nc2ccccc21 (centres undefined) | -7% | x | 9% | u | x | -3% | u | u
Cc1cc(-c2n[nH]c(=S)n2Cc2ccccc2)cs1 | -18% | -3.6% | 11% | -19% | -7% | 19% | 4% | 3%
O=C1CN(O)C(c2ccccc2)=c2cc(Cl)ccc2=N1 | -8% | x | 21% | x | x | -2% | x | u
Cc1cc(C)c(S(=O)(=O)N2CCOCC2)c(C)c1N(C)S(=O)(=O)c1ccccc1 | 0% | x | 10% | -8% | x | 17% | u | -6%
